D2 ag = activates the human D2 dopamine receptor | P14416 | 360,000 tested, 0.084% active | AID 624465 | DiscoveRx PathHunter D2 beta-arrestin, luminescence, 90 min; 100% = 57 uM dopamine signal | activation, % (no concentration beside the values); in the data active = activation above about 40%; inconclusive = about 15% to 40%; inactive = below about 15%; also: compound concentration not given in the record; the text of the record calls up to 30% inactive
Target sequence (P14416 whole entry, looked up): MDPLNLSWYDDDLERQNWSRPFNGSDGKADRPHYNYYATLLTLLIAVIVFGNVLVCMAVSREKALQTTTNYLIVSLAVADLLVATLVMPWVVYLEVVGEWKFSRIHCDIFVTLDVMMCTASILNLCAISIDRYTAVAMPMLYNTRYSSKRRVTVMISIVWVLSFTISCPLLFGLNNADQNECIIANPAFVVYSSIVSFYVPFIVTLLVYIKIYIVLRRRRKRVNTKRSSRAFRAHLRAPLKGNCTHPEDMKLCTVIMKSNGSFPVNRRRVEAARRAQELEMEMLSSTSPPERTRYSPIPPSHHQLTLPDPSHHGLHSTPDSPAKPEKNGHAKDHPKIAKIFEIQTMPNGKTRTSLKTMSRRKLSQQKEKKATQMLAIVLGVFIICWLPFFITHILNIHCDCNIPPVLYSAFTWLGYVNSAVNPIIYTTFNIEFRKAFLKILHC
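DiscoveRx PathHunter D2 beta-arrestin cells (2,100/well) attached overnight, then compound-stimulated 90 min at 37 C in HBSS/10 mM HEPES/0.1% Tween-20 buffer; beta-galactosidase complementation read by luminescence after 1 h at ambient temperature. Dopamine 57 uM final (EC100) as control.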
gsp ag = activates gsp, the McCune-Albright syndrome mutation; Potency, µM (highest dose often 76.9 µM), for inactives: at the highest dose activation (cAMP increase), most hits filed as activators; gsp mutant cells, cAMP HTRF, 30 min; control for the full effect not named in the record; 340,000 tested, 0.13% active; active = well fitted activation curve with a large enough effect; inconclusive = small, poorly fitted or top-dose-only effect, or another doubt; inactive = no such curve, though single readings can be large or run the other way; cell line not stated here;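 also: phosphodiesterase inhibitor Ro 20-1724 added with compounds to block cAMP breakdown; potency is read from the fitted curve at half-maximal effect; nearly all actives have a fitted effect of over 60% in size; about a fifth of the inactives were tested at one dose only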
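Cells in DMEM/10% FBS with G418 were pretreated with compounds in DMSO plus […] (300 uM stock) for 30 min at 37C. cAMP was measured by HTRF (cAMP-d2 plus anti-cAMP antibody-K) after 30 min at room temperature.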
Sfp PPTase inh = blocks B. subtilis Sfp PPTase activity; Biochemical Sfp PPTase activity, qHTS; 310,000 tested, 3.5% active; Potency, µM, inactives show max response, negative = inhibition, actives largely listed as inhibitors; active = well fitted inhibition curve with a large enough effect; inconclusive = small, poorly fitted or top-dose-only effect, or another doubt; inactive = no such curve, though single readings can be large or run the other way;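 also: the enzyme is Sfp with the accession as filed and its product quenches rhodamine fluorescence; potency is read from the fitted curve at half-maximal effect; 0% = enzyme reaction without inhibitor and -100% = no enzyme wells; top concentration of the series not given in the record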
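Buffer: 50 mM Hepes-Na pH 7.6, 10 mM MgCl2, 0.01% Nonidet P-40, 0.01% BSA. Enzyme 15 nM, pre-exposed to compound 15 min; substrates then added and fluorescence change tracked over 30 min.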
ClpP mod = qHTS Assay for Activators of ClpP; 340,000 tested, 1.9% active; purified B. subtilis ClpP, FRET peptide cleavage, 20 min; ATP-dependent Clp protease proteolytic subunit (Bacillus subtilis (strain 168)), P80244; Potency, µM (highest dose often 57.5 µM), for the others: at the top dose activity change, negative = active; active = well fitted falling curve with a large enough effect; inconclusive = small, poorly fitted or top-dose-only effect; inactive = no such curve, though single readings can be large or run the other way; also: potency is read from the fitted curve at half-maximal effect; the source files actives as falling curves though it sought activators and does not explain the sign; nearly all actives have a fitted effect of over 65% in size; many hits overshoot -100%
Target sequence (P80244 whole entry, looked up): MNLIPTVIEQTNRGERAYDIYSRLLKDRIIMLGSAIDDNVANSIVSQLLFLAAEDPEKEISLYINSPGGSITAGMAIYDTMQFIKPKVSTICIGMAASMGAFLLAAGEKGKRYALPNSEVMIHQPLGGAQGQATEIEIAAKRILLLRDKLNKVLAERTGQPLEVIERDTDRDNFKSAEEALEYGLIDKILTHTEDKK
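ClpP 10 microg/mL final, pH 8 Tris/KCl buffer with BSA, glycerol, Tween-20; compound pinned in; FRET-FV substrate; RT 20 min; Ex320/Em430; ΔFRET vs ADEP 5.8 microM, DMSO, no enzyme.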
gsp antag = gsp mutant antagonism | 340,000 tested, 0.4% active | AID 624288 | Potency, µM (titrated, usually from 76.9 µM), for inactives: at the top dose activity change, negative = inhibition, most hits filed as inhibitors | gsp-mutant cells, cAMP HTRF, 30 min; control for the full effect not named in the record; active = falling curve of any shape with a large fitted effect; inconclusive = falling curve, mostly with a smaller effect; inactive = flat or rising curve; cell line not stated here;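 also: intracellular cAMP measured with PDE inhibitor Ro 20-1724 present during compound exposure; potency is read from the fitted curve at half-maximal effect; % is scaled to controls: 0 for no effect and ±100 for the full control effect; nearly all actives have a fitted effect of over 65% in size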
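G418-selected cells were plated in DMEM/10% FBS for 16-24 h at 37C, then treated with compounds plus the PDE inhibitor […] (300 uM solution added) for 30 min at 37C. Intracellular cAMP was measured by HTRF after 30 min lysis at room temperature.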
PINK1 modulator = changes PINK1 expression; PINK1 immunofluorescence, high-content cytometry, 24 h; Potency, µM (titrated, usually from 76.6 µM), without a hit: at the highest dose activation (PINK1 increase), hits mostly activators; 410,000 tested, 0.2% active; AID 624263; active = well fitted activation curve with a large enough effect; inconclusive = small, poorly fitted or top-dose-only effect; inactive = flat fitted curve, though single readings scatter; cell line not stated here;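 also: potency is read from the fitted curve at half-maximal effect; % of control where 0% means no effect; nearly all actives have a fitted effect of over 65% in size; a mitochondrial uncoupler was the plate control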
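Readout is PINK1 immunofluorescence, quantified alongside mitochondrial, cell and nuclear markers by laser-scanning microplate cytometry. Cells from a stable line were exposed to compound titrations (5 concentrations) for 24 hours, with CCCP controls.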
Menin-MLL FL inh = inhibitors of human menin-MLL interaction, wild-type MLL peptide; Fluorescence polarization, fluorescein-MLL peptide displacement from menin; FP activity change, % at 61.4 µM; 290,000 tested, under 10 active; AID 1766; inconclusive = falling polarisation curve, or a change in total fluorescence; inactive = total fluorescence flat and polarisation flat or rising; no compound was filed as active; the % refers to the polarisation; negative = inhibition;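 also: % of control where 0% means no effect; inhibitors lower the polarisation; unlabelled MLL peptide was the positive control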
* = called active by the depositor; ? = inconclusive; · = not tested or not shown; [ ] = dose if it differs, or a comment.

SMILES	D2 ag	gsp ag	Sfp PPTase inh	ClpP mod	gsp antag	PINK1 modulator	Menin-MLL FL inh
CC1(O)N(CCC(=O)Nc2cccc(F)c2)C(=O)OC12CCCCC2 (centres undefined)	-2.7	8%[15.4 µM]	19%	-8.4%	11%	0.1%	4.6
Cc1ccc(NC(=O)Cn2c([N+](=O)[O-])cnc2C)cc1Cl	1.5	4%[15.4 µM]	3%	·	2%	8.8%	-0.3
CCOC(=O)C1CCN(C(=O)c2ccc(Oc3cc(Cl)cc(Cl)c3)o2)CC1	0.0	-5%[15.4 µM]	-6%	0.5%	?	1.5%	3.7
CC(OCC(O)CN(C)CCOc1ccccc1)c1ccc(Cl)cc1 (centres undefined)	6.1	0%	-23%	-1.5%	-10%	-5.5%	0.9
O=C(O)CCCN=CC1=C(O)C(C(=O)c2ccccc2)CCC1=O (centres undefined)	-2.2	-2%	18%	-1.4%	8%	-0.7%	-0.6
O=C(c1cc2c(ccc3ccccc32)o1)N1CCCCC1	-4.9	?	-5%	-2.4%	-20%	3.8%	·
CCOc1ccc(NC(=O)CNC(=O)c2ccc(OC)cc2)cc1	-1.7	19%	20%	·	8%	-0.1%	-4.3
N#Cc1cn(CCOc2ccc(F)cc2)c2ccccc12	3.2	?	-7%	0.8%	-9%	0.1%	-2.0
CCCc1cc(=O)n(-c2nc3ccccc3s2)[nH]1	-1.2	11%	-1%	-0.4%	3%	1.8%	3.0
O=C(COC(=O)Cc1ccsc1)Nc1ccc(S(=O)(=O)N2CCOCC2)cc1	-2.9	-13%	16%	·	8%	0.3%	1.5
COc1ccc(NC(=O)C2CCCN(S(C)(=O)=O)C2)cc1Cl (centres undefined)	1.1	-47%[inhibitor]	2%	·	11%	-0.1%	-1.3
COc1ccc(NC(=O)CN(C)C(=O)c2cc3c(s2)CCC3)cc1	0.1	0%	·	-1.8%	-4%	-2.6%	·
Cn1c(=O)c(-c2cccs2)nc2cnc(N3CCNCC3)nc21	·	·	9%	·	·	-0.1%	?
CSc1ccc(C(=S)N2CCN(C(c3ccccc3)c3ccccc3)CC2)cc1	-0.3	-5%	35µM*	0.3%	4%	·	-3.1
Cc1nc(Nc2ccc(S(N)(=O)=O)cc2)sc1C(=O)Nc1ccccc1	-4.5	10%[15.4 µM]	6%	·	-13%	2.1%	-1.1
O=C(c1ccccc1NS(=O)(=O)c1ccc(Br)cc1)N1CCOCC1	-5.1	?	10%	2.4%	-2%	0.1%	·
CC(=O)/C=C(\C)Nc1ccc(-c2cnc(-c3ccccc3)o2)cc1	-0.2	?	-9%	141%	-15%	-4.1%	5.0
CCOC(=O)C1=C(c2ccccc2)N=C2SCC(=O)N2C1c1cccc(OC)c1 (centres undefined)	-4.3	22%	-4%	?	4%[15.4 µM]	1.7%	-1.2
CCOC(=O)CCS(=O)(=O)c1nc(-c2ccccc2)cc(C(F)(F)F)n1	-9.3	1%	10µM*	-2.5%	29%	-0.4%	-2.1
CC(=O)c1nnn(-c2ccc([N+](=O)[O-])cc2)c1C	-3.5	-13%	8%	0.2%	10%	0.3%	0.0
CC(Sc1nncn1C)C(=O)Nc1ccc2ccccc2c1 (centres undefined)	2.8	7%[15.4 µM]	·	·	0%	1.5%	·
COc1cccc(/C=N/NC(=O)CNC(=O)CCc2ccccc2)c1O	-4.2	13%	-2%	-5.7%	-1%	-0.4%	1.4
Cc1ccc(NC(=O)Cn2nnc(C(=O)Nc3ccc(F)c(Cl)c3)c2N)cc1	1.6	43%	-6%	-9.6%	13%	0.4%	-5.3
O=C(NNc1ccc(C(F)(F)F)cc1[N+](=O)[O-])c1ccc(NS(=O)(=O)c2ccc(F)cc2)cc1	-11	-26%	7%	5.3%	?	21%	0.0
O=[N+]([O-])c1ccc(Cl)cc1NCc1cccnc1	-3.8	2%[15.4 µM]	·	-2.1%	6%	-1.5%	·
CCOc1ccccc1N(CC(=O)NCC1CCCO1)C(=O)CCC(=O)Nc1nccs1 (centres undefined)	3.4	-4%[15.4 µM]	13%	·	13%	-0.6%	·
Cc1ccc(N2C(=O)[C@@H]3C(c4cccnc4)=NO[C@@H]3C2=O)cc1	-5.3	-2%	50µM*	-2.0%	6%	-1.1%	4.4
COc1cc(NC(=O)c2cccs2)c(C(=O)OCC(=O)NCc2ccccc2)cc1OC	-2.5	18%	-7%	-1.4%	-4%	3.8%	4.7
COc1ccccc1C(=O)NNC(=O)c1ccc2ccccc2c1O	-1.1	-4%	·	1.9%	·	0.0%	·
COCCN(CC(=O)Nc1cccc(C)c1C)C(=O)Cc1sc(C)nc1-c1ccc(F)cc1	-2.0	0%	·	-3.4%	-6%	1.3%	·

Single records, from the list above:
Cc1ccc(NC(=O)Cn2nnc(C(=O)Nc3ccc(F)c(Cl)c3)c2N)cc1 is entered as D2 ag: 1.6; gsp ag: 43%; Sfp PPTase inh: -6%; ClpP mod: -9.6%; gsp antag: 13%; PINK1 modulator: 0.4%; Menin-MLL FL inh: -5.3
O=C(O)CCCN=CC1=C(O)C(C(=O)c2ccccc2)CCC1=O (centres undefined) is entered as D2 ag: -2.2; gsp ag: -2%; Sfp PPTase inh: 18%; ClpP mod: -1.4%; gsp antag: 8%; PINK1 modulator: -0.7%; Menin-MLL FL inh: -0.6

Carrying on:
SMILES	D2 ag	gsp ag	Sfp PPTase inh	ClpP mod	gsp antag	PINK1 modulator	Menin-MLL FL inh
O=C(OCC(=O)N(C1CCCCC1)C1CCCCC1)c1ccco1	0.8	3%	7%	0.2%	6%	4.8%[38.3 µM]	1.2
CCCCn1nc2cc(C(=O)NCc3ccccc3)ccc2c1OCC	-0.3	-26%	8%	4.3%	-9%	1.3%	0.6
O=C(Nc1ccc2c(c1)OCO2)c1cc(C2CCCCN2S(=O)(=O)Cc2ccccc2)on1 (centres undefined)	2.0	·	·	-3.5%	·	0.6%	·
CCOC(=O)c1nnn2c1nc(N1CCCCC1)c1ccccc12	-2.0	-8%[15.4 µM]	-8%	·	4%	1.2%	0.0
COc1cc(N2CCCC2)c(OC)cc1C=O	7.7	-78%[inhibitor]	-23%	-4.2%	-22%	-0.3%	0.2
Cc1ccc(-c2csc3nnc(SCC(=O)NCc4ccc5c(c4)OCO5)n23)cc1	-2.8	29%	0%	0.3%	-1%	5.6%[38.3 µM]	0.8
CCOC(=O)c1cc(-c2ccccc2)sc1NC(=O)C(C)OC(=O)c1ccncc1 (centres undefined)	1.3	5%[15.4 µM]	-2%	-0.9%	8%	3.5%	1.6
Cc1ccc(CNC(=O)CCS(=O)(=O)c2ccc3c(c2)NC(=O)CO3)cc1	1.7	1%	4%	-0.3%	4%	0.7%	1.4
O=C1COc2ccc(C(=O)NCc3ccc4c(c3)OCO4)cc2N1	-1.5	-9%	16%	2.8%	-2%	0.5%	3.9
COc1cc2c(cc1OC)C1=NC(=O)CN1C(SCc1ccc(C)cc1)=N2	-2.6	?	-7%	20µM*	-13%	1.3%	4.2
NC1=NOC(=O)C1C1CCCCC1 (centres undefined)	?	?	·	·	7%	2.6%	·
Cc1ccc(C)c(NC(=O)CN(C)C(=O)c2ccncc2)c1	-3.9	23%	1%	0.2%	-4%	3.3%	2.4
CC(C)CCn1nnnc1C(c1ccccc1F)N1CCC(C(N)=O)CC1 (centres undefined)	-3.9	16%	0%	-0.4%	-16%	-1.1%	2.0
NS(=O)(=O)c1cc(C(=O)NCCOc2ccccc2)c(Cl)cc1Cl	-3.8	3%	0%	1.2%	-8%	-0.9%	-0.6
CCCc1ccc(C(O)c2ncc(-c3ccccc3C)[nH]2)cc1 (centres undefined)	-4.1	·	·	0.7%	·	6.9%	·
O=c1oc2ccccc2n1Cc1cccc(F)c1	-1.1	-18%	12%	-3.8%	1%	0.8%	14
O=C(CCN1CCOCC1)NNC(=O)Nc1cccc(C(F)(F)F)c1	-1.2	-2%[15.4 µM]	13%	-9.3%	12%	1.0%	·
NC(=O)c1cc(S(=O)(=O)NCCc2ccc(Cl)cc2)cs1	1.4	?	4%	0.4%	4%	1.5%	-5.6
CCN1CC(CN(C)Cc2nc(-c3cccs3)no2)CC1=O (centres undefined)	5.5	0%	-13%	·	11%	0.1%	2.6
O=C1CCCN1c1ccc(S(=O)(=O)Oc2cccc(Cl)c2)cc1[N+](=O)[O-]	2.3	18%	20%	-1.8%	-10%	1.9%	1.4
CN(C)C(/C=C/Nc1ccc(Br)cc1)=C(C#N)C#N	1.6	-1%[15.4 µM]	11%	·	·	2.0%	0.1
O=C(Nc1nc2ccccc2s1)C1CCN(C(=O)c2ccco2)CC1	-0.4	2%[15.4 µM]	-1%	·	-13%	0.7%	-0.1
Cc1nc(-c2ccc3c(c2)OCCO3)cs1	2.6	-1%	?	·	2%	2.9%	-4.2
COc1ccc(NC(=O)c2cc(CC(C)C)on2)cc1OC	2.6	-26%	-8%	2.0%	-3%	4.0%	-0.6
O=C(c1ccco1)N1CCN(c2cccc(Cl)c2)CC1	0.5	-3%	11%	0.3%	0%	-1.3%[38.3 µM]	5.3
CC1CCC2(CC1)NC(=O)N(CC(=O)c1ccc3c(c1)OCO3)C2=O (centres undefined)	-0.9	10%	·	-10.0%	2%	0.8%	·
Cc1ccc(-c2nc(CS(=O)CC(=O)NCCCN3CCN(Cc4ccccc4)CC3)c(C)o2)cc1 (centres undefined)	-9.1	-4%	14%	-9.8%	15%	0.2%	-5.9
COc1ccc(-c2cncc3nccn23)cc1OC	-2.8	·	·	?	·	0.5%	·

Compounds shown so far with an aryl thioether with sulfur outside any ring:
SMILES	D2 ag	gsp ag	Sfp PPTase inh	ClpP mod	gsp antag	PINK1 modulator	Menin-MLL FL inh
CSc1ccc(C(=S)N2CCN(C(c3ccccc3)c3ccccc3)CC2)cc1	-0.3	-5%	35µM*	0.3%	4%	·	-3.1
CC(Sc1nncn1C)C(=O)Nc1ccc2ccccc2c1 (centres undefined)	2.8	7%[15.4 µM]	·	·	0%	1.5%	·
Cc1ccc(-c2csc3nnc(SCC(=O)NCc4ccc5c(c4)OCO5)n23)cc1	-2.8	29%	0%	0.3%	-1%	5.6%[38.3 µM]	0.8
